AmpC nodet inh = Promiscuous and Specific Inhibitors of AmpC Beta-Lactamase (assay without detergent); Potency, µM (highest dose often 28.7 µM), for inactives: at the top dose activity change, negative = inhibition; AID 585, 2007; P00811; AmpC nitrocefin hydrolysis, absorbance 480 nm, no detergent; potencies from a single point are estimates; 1.8% of 71,000 active; active = falling curve, for most hits resting on a single point; inconclusive = weak or doubtful change; inactive = flat or rising curve; note: % of control where 0% means no effect; about half of the hits show no inhibition at the top dose; a quarter of the inactives give rising signals
Target sequence (P00811 whole entry, looked up): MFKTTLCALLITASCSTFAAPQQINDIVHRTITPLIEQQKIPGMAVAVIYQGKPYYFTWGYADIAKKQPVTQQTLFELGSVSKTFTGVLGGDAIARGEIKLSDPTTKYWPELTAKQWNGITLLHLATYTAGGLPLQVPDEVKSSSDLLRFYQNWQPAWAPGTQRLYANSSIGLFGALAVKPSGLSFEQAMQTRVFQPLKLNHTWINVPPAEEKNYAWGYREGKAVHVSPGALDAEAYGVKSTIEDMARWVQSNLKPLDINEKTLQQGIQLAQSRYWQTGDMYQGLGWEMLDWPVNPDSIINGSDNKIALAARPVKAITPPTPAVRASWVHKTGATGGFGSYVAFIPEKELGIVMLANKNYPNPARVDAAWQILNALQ
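AmpC, 20 mM phosphate pH 7.0; 15 min cpd preinc, RT; start with nitrocefin (800 uM stock); A480 kinetic read, 20 s intervals, 4 min. No-enzyme wells = negative control.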
The depositor's hits bear a star; u = inconclusive; & = joins results of further samples; [ ] = another dose, or the depositor's remark. Potency is the fitted concentration of half-maximal effect. These rows are one share of the data; rates above refer to the full screens.

SMILES	AmpC nodet inh
COC(=O)C(C(=O)Nc1ccc(OC)cc1)C1CCCCCC1 (stereo not drawn)	12%
C#CCO	-7%
[N-]=[N+]=NC[C@@H]1O[C@@H](n2cnc3c(N)ncnc32)[C@@H]2O[C@@H]21	-5%[5.75 µM]
c1ccc(OCc2nn3c(-c4ccncc4)nnc3s2)cc1	8%
CCn1c(=O)c(C(=O)CN2CCCc3ccccc32)c(N)n(Cc2ccccc2)c1=O	8%
O=C(CCNC(=O)c1ccc(Br)o1)NCc1ccccc1Cl	14%
O=C(Nc1cccnc1)c1cccc(NC(=O)c2ccco2)c1	2%
C=CCNc1ncnc2c1[nH]c1ccc(C)cc12	-8%
CCCc1nnc2n1N=C(c1ccc(-c3cc(Cl)ccc3Cl)o1)CS2	-15%
Cc1ccc(S(=O)(=O)Cn2nnnc2CN2CCCC3(CCCCC3)C2)cc1	16%

2 compounds picked at random from those above:
SMILES	AmpC nodet inh
C#CCO	-7%
Cc1ccc(S(=O)(=O)Cn2nnnc2CN2CCCC3(CCCCC3)C2)cc1	16%

The list goes on:
SMILES	AmpC nodet inh
O=C(Nc1cccc(F)c1)N1CC[C@@]2(CCCN(C(=O)Oc3ccccc3)C2)C1	55%
COc1ccc(-n2c(COc3ccccc3)nnc2SCC(N)=O)cc1	55%
CCN1CCN(c2cc(=O)n(-c3cc(Cl)ccc3C)c(=O)[nH]2)CC1	-4%
CC(=O)c1c(C)[nH]c(C(=O)NCCC2=CCCCC2)c1C	5%
O=C(c1ccccc1)c1c[nH]c2cc3c(cc2c1=O)OCCO3	0%
Cc1cc(C)n(CC(=O)NCc2cc(-c3nn(C)c(=O)c4ccccc34)ccc2C)n1	92%
Cc1c(-n2cc(C(=O)c3ccccc3O)cc(C#N)c2=O)c(=O)n(-c2ccccc2)n1C	-1%
CN1C(=O)CSc2ccc(NC(=O)NCc3ccco3)cc21	-24%
CC(C)Cn1c(N)c(C(=O)COC(=O)c2ccncc2)c(=O)n(C)c1=O	24%
Cc1cccc(C)c1NC1=NC(C)(C)N=C(N)N1	-6%
Cc1nc(NCc2ccccc2)c2nc(-c3ccccc3)n(CC3CCN(C)CC3)c2n1	27%
CCOC(=O)N1CCN(C(=O)c2cc(-n3cnnc3)ccc2Cl)CC1	18%
Cn1c(C(=O)Nc2ccc3c(c2)OCO3)cc2c(=O)n(C)c3ccccc3c21	4µM*[single pt active]
COc1ccccc1C1NC(=O)NC(C)=C1C(=O)Nc1cccc(C)c1C (stereo not drawn)	45%
O=c1nc(N2CCCCC2)nc2n1CCO2	-2%
COc1cccc2c1C(=O)c1c(O)c3c(c(O)c1C2=O)C[C@](O)(C(=O)CO)C[C@H]3O[C@@H]1C[C@H](N)[C@H](O)[C@H](C)O1	41%[12.8 µM]
O=C(c1ccco1)N1CCN(C(c2cccs2)c2nnnn2C2CCCCC2)CC1 (stereo not drawn)	86%
COc1ccc(CN2CCNCC2)c(OC)c1OC	-6%[12.8 µM]
CC(C)C(NS(=O)(=O)c1ccc2c3c(cccc13)C(=O)N2)C(=O)O (stereo not drawn)	11%
Fc1ccc(C2=Nn3c(nnc3-c3n[nH]c4c3CCC4)SC2)cc1	10%
CS(=O)(=O)N(CC(=O)O)c1cccc(Cl)c1	4%
COc1cccc(-c2cncnc2NCCc2c[nH]c3ccc(OC)cc23)c1	u
N#Cc1ccc(CN2CC[C@@]3(CCCN(C(=O)c4cccc(F)c4)C3)C2)cc1	37%
Cc1ccc(S(=O)(=O)N(CC(=O)N2CCOCC2)C2CCCCC2)cc1	53%
CCCCc1c(C)nn(-c2nnc3c4ccccc4n(CC)c3n2)c1C	93%
Cc1cc(C)c(S(=O)(=O)N(C)CC(N)=O)c(C)c1	8%
CCCCOc1ccc(OCCCN2CCOCC2)cc1	69%[12.8 µM]
O=C(c1cccs1)N1CCN(Cc2cccnc2)CC1	-9%
O=C(Nc1ccc(Cl)cn1)c1cccnc1	-6%
Cc1c(C)c2c(c(C)c1O)CC[C@@](C)(C(=O)O)O2	4%[12.8 µM]
CC1(C)Nc2ccccc2N(CCC(=O)N2CCOCC2)C1=O	10%
CCOC(=O)C1C(=O)CC(C)(O)C(C(=O)OCC)C1c1ccc(Br)o1 (stereo not drawn)	29%
COc1ccc(CN2CCN(S(=O)(=O)c3ccc(F)cc3)CC2)cc1OC	40%
C[Si](C)(c1ccc(C(=O)O)cc1)c1ccc(C(=O)O)cc1	-1%[5.75 µM]
CCCCCCn1c(CN2CCN(C(=O)c3ccco3)CC2)nc2c1c(=O)n(C)c(=O)n2C	15%
Cc1nnc(SCC(N)=O)n1CC1CCCO1 (stereo not drawn)	-2%
CCCCNC(=O)C(c1ccc(OCC(=O)OC)c(C(=O)OC)c1)N(CCc1ccccn1)C(=O)CCCCCN1C(=O)NC(c2ccc(-c3ccccc3)cc2)C(C(=O)OCc2ccccc2)=C1C (stereo not drawn)	40%
Cn1cc(SCC(=O)NCc2ccc3c(c2)OCO3)c2ccccc21	-9%
O=C(c1cccs1)N1CCN(S(=O)(=O)N2CCOCC2)CC1	6%
O=C(Cn1cnc2c(cnn2-c2ccc(F)cc2)c1=O)NCc1ccco1	-1%

Already shown: an excerpt of the list.
SMILES	AmpC nodet inh
Cc1nnc(SCC(N)=O)n1CC1CCCO1 (stereo not drawn)	-2%
CCCCNC(=O)C(c1ccc(OCC(=O)OC)c(C(=O)OC)c1)N(CCc1ccccn1)C(=O)CCCCCN1C(=O)NC(c2ccc(-c3ccccc3)cc2)C(C(=O)OCc2ccccc2)=C1C (stereo not drawn)	40%
Cn1cc(SCC(=O)NCc2ccc3c(c2)OCO3)c2ccccc21	-9%
O=C(c1cccs1)N1CCN(S(=O)(=O)N2CCOCC2)CC1	6%
O=C(Cn1cnc2c(cnn2-c2ccc(F)cc2)c1=O)NCc1ccco1	-1%

Additional entries follow:
SMILES	AmpC nodet inh
Cc1ccc(-c2csc(NC(=O)c3ccno3)n2)cc1	7.9µM*
CCCCOc1ccc(CN2CCN(CCO)CC2)cc1	17%
CC(=O)c1cccc(NC(=O)CN(c2cccc(F)c2)S(C)(=O)=O)c1	-6%
Cc1noc(NS(=O)(=O)c2ccc(N)cc2)c1C	-5%
CC(C)(C)NC(=O)NC(=O)COC(=O)CNC(=O)c1cccc(F)c1	6%
O=C(CCCN1C(=O)c2ccccc2C1=O)Nc1ccccn1	-5%
CN(C)Cc1ccccc1-c1ccc2ncnc(N(C)Cc3ccco3)c2c1	60%
Cc1nn(C(=O)c2ccccc2)c2c1C(=O)CC(C)(C)C2	7%
N#Cc1cnn(CC2CCCCC2)c1N	1%
COC(=O)c1cc(-c2cccc(OC)c2)on1	13%
CN(C)c1oc(-c2ccccc2F)nc1C#N	4µM*[single pt active]
CCC(c1nnc(SCC(=O)Nc2nnc(-c3ccccc3)o2)o1)N(C)C (stereo not drawn)	-10%
CC1CC2(CC(C)(C(=O)CSc3nc4ccccc4s3)OC2=O)C(=O)O1 (stereo not drawn)	22%
O=C(O)CCC(=O)NCC1OCCc2ccccc21 (stereo not drawn)	3%
CCc1n[nH]c2c1/C(=N\O)CC(c1ccccc1)C2 (stereo not drawn)	-12%
O=C(NCCCN1CCN(c2ccccc2F)CC1)C1CCN(S(=O)(=O)N2CCOCC2)CC1	64%
CC(C)Cn1c(NCCN(C)C)nc2c1c(=O)[nH]c(=O)n2C	6%
CC(C)Cc1nc2oc3c(=O)[nH]cnc3c2c2c1CCC2	-1%
CCC12CC3CC(C1)CC(C(=O)Nc1nn[nH]n1)(C3)C2	-3%
COc1ccc(S(=O)(=O)Nc2cccc(NC(C)=O)c2)cc1	-9%
CCOC(=O)C1CCN(S(=O)(=O)c2ccc(OCC)cc2)CC1	24%
COCCNC(=O)C1CC(=O)N(c2ccc(F)c(Cl)c2)C1 (stereo not drawn)	-8%
Clc1cc(Cl)c(-c2cc(Cl)c(Cl)cc2Cl)cc1Cl	-5%
CCCNC(=O)CS(=O)Cc1nc(-c2ccccc2C)oc1C (stereo not drawn)	4µM*[single pt active]
CCSc1nc2c(c(=O)[nH]1)C(c1cccnc1)C(C(=O)OC)=C(C)N2 (stereo not drawn)	-14%
O=C1c2cc([N+](=O)[O-])ccc2-c2ccc3c4ccc5c6c(ccc(c7ccc1c2c73)c64)C(=O)c1cc([N+](=O)[O-])ccc1-5	2.5µM*
O=C(Cn1cc2c(n1)CCCC2)NCc1ccccn1	18%
CCCC(=O)Nc1cccc(NC(=O)c2ccc3c(c2)OCO3)c1	-18%
CCOCCCNc1nc2c([nH]1)c(=O)n(C)c(=O)n2C	11%
O=C(Cn1cc(/C=N/O)c2ccccc21)N1CCOCC1	3%
CCOC(=O)c1c(C)[nH]c(C(=O)COC(=O)CNC(=O)C2CCCCC2)c1C	3%
CCOC(=O)N1CCN(C(=O)C2CCCN(S(=O)(=O)c3cc(C)ccc3OC)C2)CC1 (stereo not drawn)	80%
CC(C)CCNC(=O)CCCOc1cc(=O)n(C)c2ccccc12	44%
CC1CCCCN1CCNC(=O)c1cc2c(-c3ccccc3F)nn(C)c2s1 (stereo not drawn)	4µM*[single pt active]
CCOC(=O)c1c(O)[nH]c(=O)c(CC)c1C	-10%[5.75 µM]
CCC(C)(C(=O)NC1CCCCC1)N(C(=O)C1CCC(=O)N1)c1ccc(C)cc1 (stereo not drawn)	26%
CN1CCCC(OC(=O)c2cc(Br)ccc2Cl)C1 (stereo not drawn)	-6%
CCOC(=O)C1CCN(C(=O)CSCc2nc(-c3ccc(OCC)cc3)oc2C)CC1	137%
CN1CC(=O)N(CC(=O)NCc2ccc(F)cc2)c2ccccc2C1=O	6%
CCN(CCNC(=O)C1CC(=O)N(CCc2ccccc2)C1)c1ccccc1 (stereo not drawn)	78%

Next section; the last four above are carried over.
SMILES	AmpC nodet inh
CN1CCCC(OC(=O)c2cc(Br)ccc2Cl)C1 (stereo not drawn)	-6%
CCOC(=O)C1CCN(C(=O)CSCc2nc(-c3ccc(OCC)cc3)oc2C)CC1	137%
CN1CC(=O)N(CC(=O)NCc2ccc(F)cc2)c2ccccc2C1=O	6%
CCN(CCNC(=O)C1CC(=O)N(CCc2ccccc2)C1)c1ccccc1 (stereo not drawn)	78%
CCOC(=O)c1sc(NC(=O)c2cc3c(C)nn(-c4ccccc4)c3s2)nc1C	-12%
O=C(COC(=O)c1ccc(Oc2ccccc2)cc1)Nc1nnc(-c2ccccc2)o1	16µM*
COc1cccc(NC(=O)c2ccco2)c1	2%
O=C1OCCC1Sc1nnc(-c2cccs2)n1Cc1ccccc1 (stereo not drawn)	10%
COc1ccccc1OCC(=O)Nc1ccc(O)cc1C(=O)O	-9%
CCOC(=O)C(NC(=O)CCC(=O)Nc1ccc(S(N)(=O)=O)cc1)C(O)c1ccccc1 (stereo not drawn)	0%
CC(C)n1c(SCc2ccc(Cl)cc2)nc2c1c(=O)[nH]c(=O)n2C	3%
CCOC(=O)/C(C#N)=C1/C=Nc2ccccc2N1	-3%
Cc1cc(S(=O)(=O)N2CCCC2)ccc1OCC(=O)N1CCOCC1	16%
CCOc1ccc2noc3c2c1C(=O)c1ccccc1-3	-4%
CCOCC(=O)Nc1nc2c(s1)C(=O)CC(C)(C)C2	6%
O=C(OCc1nc2ccccc2c(=O)[nH]1)c1cccs1	-17%
CCCCn1c(O)c(C(C)=NC(Cc2c[nH]c3ccccc23)C(=O)OC)c(=O)[nH]c1=O (stereo not drawn)	11%
N[C@@H](Cc1ccccc1)c1nnc(SCc2ccccc2Cl)o1	74%
COc1cc(N[C@@H](C)CCCN)c2ncccc2c1	40%[12.8 µM]
Cn1ccnc1P(=S)(c1nccn1C)c1nccn1C	-2%
O=C(NC1CCN(Cc2ccccc2)CC1)c1ccc(I)cc1	5%
CCCC(O)(CCN1CCOCC1)c1ccc(Br)cc1 (stereo not drawn)	40%
COc1cccc(OCc2nnc(SCC(=O)OCc3ccccc3)o2)c1	-7%
CC1C2CC(CC1(C)C)N(C(=O)Nc1ccc3nccnc3c1)C2 (stereo not drawn)	17%
COc1nc(NCc2ccc(Cl)cc2)nc(OC)n1	1%
N#CC1=C(N)SC(N)=C(C#N)C1Cc1ccccc1	-20%
O=c1[nH]c(=O)n(CCC2=CCCCC2)c(O)c1C=NCCN1CCNCC1	2%
c1ccc(CNc2ccc3ccccc3n2)nc1	2%
CC1CCN(S(=O)(=O)c2cn(CC(=O)N3CCN(C)CC3)c(=O)c3ccccc23)CC1	98%
Fc1ccc(-c2nnc3sc(-c4ccc5c(c4)OCO5)nn23)cc1	36%
CCNc1nc(N2CCCCC2)nc(-n2nnc(C(=O)OCC)c2C)n1	65%
COC(=O)Cn1c(CCC(=O)O)ccc1-c1ccccc1	25%
CCC1CCCCN1CCCNC(=O)CC1Oc2ccc(C)cc2NC1=O (stereo not drawn)	15%
CCOC(=O)c1cccc(NC(=O)CSc2nnc(-c3ccoc3C)n2CC)c1	41%
CSc1nc2ccccc2n1Cc1cccc(F)c1	23%
Cc1cccc(NC2SC(=O)N(c3ccccc3)C2=O)c1 (stereo not drawn)	-18%
CCN(CC)C(=O)COc1ccc(-c2nnc(N3CCCCC3)c3ccccc23)cc1	104%
CC(C)C(OC(=O)c1cccs1)C(=O)NCc1ccco1 (stereo not drawn)	6%
CN(C)CCCNC(=O)Cc1ccc(Br)cc1	-9%
O=C(CN1CCN(c2ccccc2)CC1)Nc1nnc(-c2ccccc2)s1	-8%
CCC1(C)Cc2c(sc3nc(SCC(=O)O)[nH]c(=O)c23)CO1 (stereo not drawn)	-4%
O=C1CCc2cc(S(=O)(=O)NCCC(=O)N3CCN(c4cccc(Cl)c4)CC3)ccc2N1	50%
FC(F)(F)COc1nc(OCC(F)(F)F)nc(N2CCN(c3ccccc3)CC2)n1	9%
Nc1cc(-c2nn[nH]n2)ccc1F	u
Cc1cccc(OCc2nc(C#N)c(NCCN(C)C)o2)c1	20%
Cc1ccccc1C	-11%&-8%
CCC(C)(C)NC(=O)C1CCN(c2nc(C)cc(C)n2)CC1	16%

Screening results from PubChem BioAssay.
